Vaccinia stage: blocks a specific stage of Vaccinia orthopoxvirus infection, primary screen, cell-based, single point | Vaccinia-infected cells, mCherry/Venus stage reporter fluorescence; hits give low values; some inactives read as strong as hits | activity change (mCherry), % (concentration not given with the values) | 89,000 compounds, 0.01% hits;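 active = mCherry past -33% and 40 or more points under the early reporter, replicates agreeing; inconclusive = past -33% without that gap or agreement; tested in A549 cells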;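 also: scaled between vehicle wells and reference inhibitor wells; 23 nL library stock went into each well; one replicate is shown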
Vaccinia stage Venus: recorded beside Vaccinia stage, whose call it bears; activity change (Venus), %; measured here: Venus reporter, other viral stage;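 negative = less Venus signal; first of two replicates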
Starred values were filed as active, the others as inactive; ? = inconclusive; . = not tested or not shown.

SMILES	Vaccinia stage	Vaccinia stage Venus
O=C(Cc1cccnc1)N[C@H]1CC[C@@H](CCn2cc(Cc3ccccc3)nn2)O[C@H]1CO	9.3	11.6
COc1ccc(NC(=O)N(C)C[C@@H]2Oc3c(NC(=O)NC(C)C)cccc3C(=O)N([C@H](C)CO)C[C@@H]2C)cc1	-4.3	-3.0
Cc1noc(C)c1S(=O)(=O)Nc1ccc2c(c1)C(=O)N([C@H](C)CO)C[C@@H](C)[C@@H](CN(C)C(=O)Cc1ccccc1)OCCCC[C@@H](C)O2	-0.6	-5.9
COc1ccc(-c2cnc3c(c2)C(=O)N([C@H](C)CO)C[C@@H](C)[C@@H](CN(C)C(=O)C2CCC2)O3)cc1	-7.5	0.9
CC(C)(C)[S@](=O)N1Cc2cc(C(=O)N3CCOCC3)nc(-c3cccc(-c4ccccc4F)c3)c2[C@@H]1CCO	-1.2	12.2
O=C(C1CCOCC1)N1CC2(C1)[C@@H](c1ccccc1)[C@@H](CO)N2CCC(F)(F)F	13.9	15.5
C[C@H](CO)N1C[C@H](C)[C@H](CN(C)Cc2ccccc2)Oc2ccc(NC(=O)CCC(F)(F)F)cc2CC1=O	-3.6	4.1
CCC(=O)N1CCCCN2[C@@H](CO)[C@H](c3ccc(/C=C/c4ccccc4)cc3)[C@@H]2C1	-25.8	-36.0
CO[C@H]1CN(C)C(=O)c2cc(NS(C)(=O)=O)ccc2OC[C@H](C)NC[C@H]1C	9.2	5.5
C[C@H](CO)N1C[C@H](C)[C@@H](CN(C)C(=O)c2ccccc2F)Oc2cc(-c3ccc(F)cc3)ccc2S1(=O)=O	-1.6	-14.4
C[C@H]1CN([C@@H](C)CO)C(=O)c2cccc(NS(=O)(=O)c3ccc(F)cc3)c2O[C@@H]1CN(C)Cc1ccc(C(=O)Nc2ccccc2N)cc1	-0.7	-1.4
COc1cccc(-c2ccc([C@H]3[C@@H](CO)N4C(=O)CN(C(=O)C5CCOCC5)C[C@@H]34)cc2)c1	3.4	1.0
CCCNC(=O)N1[C@H](C#N)[C@@H](c2ccccc2-c2ccc(C)cc2)[C@@H]1CO	-1.3	-4.9
CC=Cc1ccc2n(c1=O)C[C@H]1[C@H](CO)[C@@H](C(=O)Nc3ccc(-c4ccccc4)cc3)[C@@H]2N1C(C)=O (mixture of isomers)	-1.5	-7.6
CO[C@H]1CN(C)C(=O)c2ccc(NS(C)(=O)=O)cc2OC[C@H](C)N(C(=O)NC(C)C)C[C@@H]1C	9.9	-1.7
Cc1ccc(S(=O)(=O)N(C)C[C@@H]2Oc3c(NC(=O)Nc4c(C)noc4C)cccc3C(=O)N([C@@H](C)CO)C[C@H]2C)cc1	5.6	-1.1
C[C@@H]1CCCCO[C@H](CN(C)C(=O)c2ccccc2)[C@H](C)CN([C@@H](C)CO)C(=O)c2cc(NC(=O)Nc3ccc(C(F)(F)F)cc3)ccc2O1	?	.
C[C@H]1CN([C@@H](C)CO)S(=O)(=O)c2ccc(-c3cncnc3)cc2O[C@H]1CN(C)C(=O)Cc1ccccc1	0.9	-8.4
C[C@@H]1CN([C@H](C)CO)S(=O)(=O)c2ccc(-c3ccccc3F)cc2O[C@@H]1CN(C)Cc1ccncc1	?	.
CN1CCN(C(=O)C[C@H]2C=C[C@H](NS(=O)(=O)c3cccc(F)c3)[C@@H](CO)O2)CC1	-1.1	0.0
CC(=O)N(C)C[C@@H]1Oc2ncc(/C=C/c3ccccc3)cc2C(=O)N([C@@H](C)CO)C[C@H]1C	-3.4	5.0
COc1ccc2c3c(n(C)c2c1)[C@H](CO)N(C(C)=O)CC31CCN(C(=O)c2cnccn2)CC1	25.0	12.1
O=C(Nc1cccc(Cl)c1)N1C[C@@H]2[C@H](c3ccccc31)[C@@H](CO)N2C(=O)C1CC1	-11.7	-1.3
CN(C)CC#Cc1ccc([C@H]2[C@@H](CO)N3CCCCN(C(=O)Nc4ccc(F)cc4)C[C@H]23)cc1	-10.1	-10.7
COc1ccc(CN(C)C[C@H]2Oc3ccc(NC(=O)Cn4cnnn4)cc3C(=O)N([C@H](C)CO)C[C@@H]2C)cc1	9.2	5.5
COc1ccc(S(=O)(=O)N(C)C[C@H]2OCCCC[C@H](C)Oc3ccc(NC(=O)Nc4cccc5ccccc45)cc3C(=O)N([C@H](C)CO)C[C@@H]2C)cc1	4.1	-2.5
CN(C)CCCNC(=O)[C@@H]1[C@@H](CO)[C@@H]2Cn3c(ccc(C4=CCCCC4)c3=O)[C@H]1N2Cc1cocn1	13.5	14.0
C/C=C/c1ccc(C2[C@@H]3CN(Cc4cccc(F)c4)C[C@H]2N3)cc1 (some centres undefined)	-20.8	-14.2
CCS(=O)(=O)NCC[C@@H]1CC[C@@H](NC(=O)Nc2cc(Cl)cc(Cl)c2)[C@H](CO)O1	-3.0	1.4
C=CCOC(=O)C(=O)/C=C/c1ccc(F)cc1	3.0	-1.8
O=C1N(Cc2ccccc2)Cc2ccccc2[C@H]2OC(c3ccc(OCCCO)cc3)=N[C@@]12CCS(=O)(=O)c1ccccc1	-15.4	-11.0
CCCNC(=O)N1C[C@@H](O)COC[C@H]2O[C@@H](CC(=O)N3CCCCC3)CC[C@@H]21	2.0	0.9
COc1ccc(NC(=O)N(C)C[C@@H]2Oc3c(NC(=O)C4CCCCC4)cccc3C(=O)N([C@@H](C)CO)C[C@@H]2C)cc1	-1.7	-1.4
O=C(C[C@H]1CC[C@@H](NC(=O)c2cnccn2)[C@H](CO)O1)NCc1ccccc1F	1.6	5.1
C[C@H]1CN([C@@H](C)CO)C(=O)c2cc(-c3cccc(F)c3)cnc2O[C@@H]1CN(C)C(=O)C1CCC1	-20.8	-12.4
CC(C)CC#Cc1ccc([C@@H]2[C@@H](CO)N3C(=O)CN(C(=O)c4cccc(F)c4)C[C@H]23)cc1	?	.
COc1ccc(-c2cnc3c(c2)C(=O)N([C@@H](C)CO)C[C@@H](C)[C@@H](CN(C)C)O3)cc1	-16.1	-15.5
C[C@@H]1CN([C@@H](C)CO)S(=O)(=O)c2ccc(C3=CCCC3)cc2O[C@@H]1CN(C)C(=O)c1cccnc1	8.8	12.0
Cc1ccc(S(=O)(=O)N(C)C[C@H]2Oc3c(NC(=O)C4CCCCC4)cccc3C(=O)N([C@@H](C)CO)C[C@H]2C)cc1	?	.
COc1ccc2c3c(n(C)c2c1)[C@@H](CO)N(C)CC31CCN(C(=O)c2ccc3c(c2)OCO3)CC1	3.2	1.1
Cc1noc(C)c1S(=O)(=O)N(C)C[C@@H]1Oc2ccc(NC(=O)C3CCCCC3)cc2CC(=O)N([C@H](C)CO)C[C@H]1C	-0.6	2.0
C[C@H]1CCCCO[C@@H](CN(C)Cc2ccc3c(c2)OCO3)[C@@H](C)CN([C@@H](C)CO)C(=O)c2cc(NC(=O)C3CCCCC3)ccc2O1	?	.
COc1ccc(-c2ccc3c(c2)[C@@H]2[C@@H](CCN2C(=O)Nc2ccccc2OC)[C@@H](CO)N3C)cc1	-7.1	-6.4
C[C@H](CO)N1C[C@H](C)[C@H](CN(C)C(=O)NC2CCCC2)Oc2cc(-c3cncnc3)ccc2S1(=O)=O	15.5	20.5
O=C(N[C@H]1C=C[C@@H](CC(=O)N2CCc3ccccc3C2)O[C@@H]1CO)C1CC1	12.3	11.4
CO[C@@H]1CN(C)C(=O)c2ccc(NC(C)=O)cc2OC[C@H](C)N(C(=O)Cc2cccnc2)C[C@@H]1C	27.3	18.8
C[C@@H]1CN([C@H](C)CO)C(=O)c2cc(C#CCN(C)C)cnc2O[C@H]1CN(C)C(=O)Cc1ccccc1	3.9	4.7
CCNC(=O)C[C@H]1CC[C@H]2[C@@H](COc3ccc(NC(=O)c4ccc(F)c(F)c4)cc3C(=O)N2C)O1	1.4	4.9
COc1cccc(-c2ccc([C@@H]3[C@@H](CO)N4C(=O)CN(C(=O)c5ccncc5)C[C@H]34)cc2)c1	-1.1	-5.4
CC(=O)N1CC2(C1)[C@H](c1ccc(-c3ccccc3C)cc1)[C@H](CO)N2C(C)=O	10.5	9.7

Single records, as listed above. Order of values: Vaccinia stage	Vaccinia stage Venus
O=C(C[C@H]1CC[C@@H](NC(=O)c2cnccn2)[C@H](CO)O1)NCc1ccccc1F is listed as 1.6	5.1
CCCNC(=O)N1[C@H](C#N)[C@@H](c2ccccc2-c2ccc(C)cc2)[C@@H]1CO is listed as -1.3	-4.9
C[C@@H]1CN([C@@H](C)CO)S(=O)(=O)c2ccc(C3=CCCC3)cc2O[C@@H]1CN(C)C(=O)c1cccnc1 is listed as 8.8	12.0
COc1ccc(NC(=O)N(C)C[C@@H]2Oc3c(NC(=O)C4CCCCC4)cccc3C(=O)N([C@@H](C)CO)C[C@@H]2C)cc1 is listed as -1.7	-1.4
C[C@H]1CN([C@@H](C)CO)C(=O)c2cccc(NS(=O)(=O)c3ccc(F)cc3)c2O[C@@H]1CN(C)Cc1ccc(C(=O)Nc2ccccc2N)cc1 is listed as -0.7	-1.4

The listing continues.
SMILES	Vaccinia stage	Vaccinia stage Venus
CNC(=O)C[C@H]1CC[C@H]2[C@H](COc3ccc(NC(=O)c4ccccc4OC)cc3C(=O)N2C)O1	-1.1	-4.7
Cc1noc(C)c1S(=O)(=O)Nc1ccc2c(c1)C(=O)N([C@@H](C)CO)C[C@H](C)[C@@H](CN(C)C(=O)Nc1cccc3ccccc13)OCCCC[C@H](C)O2	-14.5	-5.6
C[C@H]1CN([C@@H](C)CO)C(=O)c2cc(NC(=O)Nc3ccc4c(c3)OCO4)ccc2O[C@@H]1CN(C)Cc1ccc2c(c1)OCO2	-3.2	0.5
C[C@@H]1CN([C@H](C)CO)C(=O)c2cc(NC(=O)Cc3ccccc3)ccc2O[C@H]1CN(C)Cc1ccc(C(=O)O)cc1	22.3	4.5
C[C@@H]1CN([C@@H](C)CO)C(=O)c2cc(NC(=O)Nc3ccccc3)ccc2O[C@@H](C)CCCCO[C@@H]1CN(C)S(=O)(=O)c1ccc(Cl)cc1	11.3	15.2
Cc1ccccc1-c1cnc2c(c1)C(=O)N([C@@H](C)CO)C[C@H](C)[C@@H](CN(C)C(=O)c1ccc(F)cc1)O2	4.5	-9.4
Cc1ccc(S(=O)(=O)N[C@@H]2CC[C@H](CC(=O)NCCc3ccncc3)O[C@H]2CO)cc1	6.6	0.4
C[C@@H]1CCCCO[C@H](CN(C)C(=O)NC2CCCCC2)[C@H](C)CN([C@@H](C)CO)C(=O)c2cc(NC(=O)Cc3ccccc3)ccc2O1	?	.
CO[C@H]1CN(C)C(=O)c2ccc(NC(C)=O)cc2OC[C@H](C)N(CCC(F)(F)F)C[C@H]1C	-12.9	-6.1
CO[C@@H]1CC[C@@H]2CCOc3c(C#N)cccc3C(=O)N(C)C[C@H](c3ccccc3)CC(=O)N(C)C[C@@H]1O2	7.3	5.0
CCCC(=O)Nc1ccc2c(c1)C(=O)N(C)C[C@H](OC)[C@H](C)CN(C(=O)c1cnccn1)[C@H](C)CO2	6.7	-3.0
CNC[C@H]1Oc2ccc(NC(=O)C3CCCCC3)cc2C(=O)N([C@@H](C)CO)C[C@H]1C	-2.3	5.8
CN1C(=O)c2cc(NC(=O)c3ccc(F)cc3)ccc2OC[C@H]2O[C@H](CC(=O)O)CC[C@H]21	1.4	-1.5
O=C(NCC[C@@H]1CC[C@@H](NC(=O)c2ccccc2F)[C@H](CO)O1)c1cnccn1	3.3	3.9
CN(C)C(=O)C[C@H]1C[C@@H]2c3cc(NC(=O)Nc4ccc(C(F)(F)F)cc4)ccc3O[C@@H]2[C@H](CO)O1	-7.8	-12.0
C[C@@H]1CN([C@H](C)CO)S(=O)(=O)c2ccc(C3=CCCCC3)cc2O[C@@H]1CN(C)C(=O)C1CCC1	-28.4	-32.4
Cc1ccc(S(=O)(=O)Nc2cccc3c2O[C@H](CN(C)Cc2ccc(-c4ccccc4)cc2)[C@H](C)CN([C@H](C)CO)C3=O)cc1	-4.7	-3.0
O=C(NCC[C@@H]1CC[C@H](NS(=O)(=O)c2ccc(Cl)cc2)[C@@H](CO)O1)c1ccc2c(c1)OCO2	-33.5	-16.8
O=C(O)C[C@H]1C[C@H]2c3cc(NC(=O)C4CCC4)ccc3O[C@H]2[C@H](CO)O1	-2.8	-6.6
C[C@H]1CN([C@@H](C)CO)C(=O)c2cc(Br)cnc2O[C@@H]1CN(C)Cc1ccccc1	23.9	12.5
CC1=C([C@H](O)c2ccccc2)[C@H](CO)n2c(=O)n(-c3ccccc3)c(=O)n2C1	9.4	2.1
O=C(O)[C@H]1[C@H](CO)[C@H]2Cn3c(ccc(-c4ccccc4F)c3=O)[C@H]2N1C(=O)c1cnccn1	20.8	6.9
CN(C)Cc1cn(CC[C@H]2CC[C@@H](NS(=O)(=O)c3ccc(-c4ccccc4)cc3)[C@@H](CO)O2)nn1	?	.
Cc1ccc(S(=O)(=O)N(C)C[C@H]2Oc3ccc(NC(=O)Cn4cnnn4)cc3C(=O)N([C@@H](C)CO)C[C@@H]2C)cc1	14.5	2.3
O=C(O)C[C@@H]1C[C@@H]2c3cc(NS(=O)(=O)c4ccccc4)ccc3O[C@@H]2[C@H](CO)O1	0.7	1.2
O=C(N[C@H]1CC[C@H](CC(=O)N2CCOCC2)O[C@@H]1CO)c1ccc2c(c1)OCO2	19.9	19.8
C[C@H]1CN([C@@H](C)CO)C(=O)c2cc(NS(=O)(=O)c3cccs3)ccc2O[C@@H]1CN(C)S(=O)(=O)c1ccc(F)cc1	3.7	-0.6
C[C@@H]1CN([C@H](C)CO)C(=O)CCCn2cc(nn2)CO[C@H]1CN(C)C(=O)Nc1ccc(N2CCN(C)CC2)cc1	9.4	19.0
Cc1ccccc1S(=O)(=O)N1CC[C@@H]2[C@@H](CO)Nc3ccc(C#Cc4ccccc4)cc3[C@@H]21	-31.1	-20.7
CO[C@@H]1CN(C)C(=O)c2cc(NC(=O)c3cnccn3)ccc2OC[C@@H](C)N(C(C)=O)C[C@H]1C	18.3	14.6

These rows are one share of the data, so the mix of outcomes need not match the whole.
